AID504770 = growth inhibitors of E. coli YBA685 in a screen for V. cholerae RctB (chromosome II replication) inhibitors | E. coli YBA685 rctB-dependent plasmid, OD600 growth, 3 h; hits give low values | z-score (concentration not given with the values) | 130,000 tested, 0.27% active | AID 504770;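 active means z-score under -2 on both plates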;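 further: wells of about 30 µL received 100 nL stock; score is relative to mean and SD of the test wells; the first replicate is given; strong numbers were not always called active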
CapD inh = blocks the Bacillus anthracis CapD enzyme; purified CapD enzyme, fluorescence intensity read-out; hits give low values; some hits fall short of the stated cut; z-score (no concentration beside the values); 140,000 tested, 0.23% active;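 active means z-score under -4 in either of two replicates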;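 further: stock transfer was 100 nL into about 40 µL; score is relative to mean and spread of the plate; one replicate is shown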
An asterisk follows results filed as active; . = not tested or not shown; & = joins results of further samples.

SMILES,CapD inh,AID504770
Cn1c(SCC(=O)Nc2ccc3nc(SCC(=O)NC4CC4)sc3c2)nnc1-c1ccccc1,0.54,.
CCOC(=O)c1cc(C(=O)/C=C/N(C)C)on1,7,-1
Cc1cc(C(=O)OCc2csc(-c3ccccc3)n2)c(C)o1,.,-0.9
CCCC(=O)Nc1ccc2oc(-c3ccccc3Br)nc2c1,11,-1
Cc1ccc(NC2=NC(C)(C)CS2)cc1,-0.12,-1.2
CCOC(=O)c1sc(C2COc3ccccc3O2)nc1C (configuration not stated),0.06,-0.15
CCCC12CCC(c3ccc(C#N)cc3)(CC1)CC2,0.51,1.8
Nc1ccc(C(=O)OCc2nc3cc4ccccc4cc3[nH]2)cc1,-0.22,0.15
CNC(=O)COc1coc(CN2CCN(Cc3ccccc3)CC2)cc1=O,.,0.95
Nc1ccccc1C(=O)NCC(F)(F)F,.,0.05
CS(=O)(=O)N(CC(=O)N1CCCCC1)c1sc2c(c1C#N)CCCC2,.,1.6
O=C1/C(=C\c2cccs2)SC(=S)N1CC(=O)N1CCCc2ccccc21,-0.17,-0.2
C1CN(P2(N3CCOCC3)=NP(N3CCOCC3)(N3CCOCC3)=NP(N3CCOCC3)(N3CCOCC3)=N2)CCO1,0.18,.
CCOC(=O)c1c(SC)nc2c(C(F)(F)F)cccc2c1N1CCCC1,-0.54,-0.85
CC(=O)Nc1ccc(C2CC(c3ccc(Cl)cc3)=NN2c2ccccc2)cc1 (configuration not stated),47,.

The list goes on.
SMILES,CapD inh,AID504770
COc1cccc(NC(=O)/C(C#N)=C2\SCC(=O)N2c2ccc(C)cc2)c1,.,-0.3
Cc1ccc(O)c(CN2CCN(c3ccccc3)CC2)c1,0.28,0.15
C=CCSc1nnc2n(-c3ccccc3)c(=O)c3c4c(sc3n12)CCCC4,-0.095,.
COc1cccc(/C(C#N)=C/c2c(-c3ccc(Cl)cc3)nc3c(C)cccn23)c1,-1.3,.
O=c1c2ccccc2nnn1CSc1nnc2ccccn12,.,-0.1
CCOC(=O)C1=C(C)N=c2s/c(=C\c3ccc(SC)cc3)c(=O)n2C1c1ccc(OC)cc1OC (configuration not stated),0.24,.
N#Cc1c(-c2cccc(Cl)c2Cl)c(C#N)c2nc3ccccc3n2c1N,15,.
COC(=O)c1cccc(S(=O)(=O)N2CCOCC2)c1,.,1.5
Cc1ccc(-c2nc(SCC(=O)c3ccc(Cl)cc3)n[nH]2)cc1,-0.96,1.9
COc1ccc(N2C(=O)/C(=C/c3ccc(OC)c(OC)c3)N=C2c2ccc(Cl)cc2)cc1,-0.24,.
COc1cccc(C(=O)NC2CCCC2)c1,.,-1
Cc1cccc(-n2c(Cn3ccc(C)n3)n[nH]c2=S)c1,-0.09,-1.1
Nc1ncnc2c1ncn2CC(O)CO (configuration not stated),.,-0.05
O=C(CSCC(=O)Nc1nc(-c2cccs2)cs1)Nc1nccs1,.,0.2
Cn1c(=O)[nH]c(=O)c2c3c(sc21)COC(C)(C)C3,6.2,.

Sorted by molar mass (smallest number first): some entries from above
SMILES,CapD inh,AID504770
COC(=O)c1cccc(S(=O)(=O)N2CCOCC2)c1,.,1.5
CS(=O)(=O)N(CC(=O)N1CCCCC1)c1sc2c(c1C#N)CCCC2,.,1.6
C1CN(P2(N3CCOCC3)=NP(N3CCOCC3)(N3CCOCC3)=NP(N3CCOCC3)(N3CCOCC3)=N2)CCO1,0.18,.

The listing picks up, starting 6 compounds before the break.
SMILES,CapD inh,AID504770
COc1ccc(N2C(=O)/C(=C/c3ccc(OC)c(OC)c3)N=C2c2ccc(Cl)cc2)cc1,-0.24,.
COc1cccc(C(=O)NC2CCCC2)c1,.,-1
Cc1cccc(-n2c(Cn3ccc(C)n3)n[nH]c2=S)c1,-0.09,-1.1
Nc1ncnc2c1ncn2CC(O)CO (configuration not stated),.,-0.05
O=C(CSCC(=O)Nc1nc(-c2cccs2)cs1)Nc1nccs1,.,0.2
Cn1c(=O)[nH]c(=O)c2c3c(sc21)COC(C)(C)C3,6.2,.
CNc1ccccc1C(=O)NCc1ccco1,84,.
COc1ccc2c(c1)C=CC(C1C(=O)c3ccccc3C1=O)N2 (configuration not stated),.,0.05
CC(Oc1ccccc1)C(=O)Nc1nc2ccccc2s1 (configuration not stated),0.18,0.65
CN1C(=O)/C(=C\c2ccc(-c3ccc(S(N)(=O)=O)cc3)o2)c2ccccc21,.,0.8
FC(F)(F)c1cnc(Sc2ncn[nH]2)c(Cl)c1,0.51,-0.2
COc1cc(NC(=O)c2ccc3c(=O)n(Cc4cccc(Br)c4)c(=S)[nH]c3c2)cc(OC)c1OC,-0.29,.
C/C(=C\C(=O)Nc1ccc(Cl)cc1)N1CCN(c2ccccc2F)CC1,.,-0.35
O=S(=O)(CCO/N=C/c1cccs1)c1ccc(Cl)cc1,-0.84,-1.1
O=C(NNC1=NCCC1)c1cccc(S(=O)(=O)N2CCOCC2)c1,.,-0.1
Cc1oc(-c2ccc3c(c2)OCCO3)cc1C(=O)NC(C(=O)O)C(C)C (configuration not stated),10,0.75
CSc1ncccc1C(=O)OC1CCOC1=O (configuration not stated),.,-0.25
CC1(C(=O)O)CC(C)(C(=O)O)CC(C)(C(=O)O)C1 (configuration not stated),-0.81,2.5
CNc1nc(C)c(C(=O)OCC(=O)OC)s1,.,-0.65
CCCN1CCC(N(C(=O)c2cccc(NC(=O)c3cc(OC)c(OC)c(OC)c3)c2)C2CC2)CC1,-0.35,.
CC1=C(C(=O)OCCc2ccccc2)C(c2ccccc2C(F)(F)F)NC(=O)N1C (configuration not stated),-0.49,.

(next part)
SMILES,CapD inh,AID504770
CCCN1C[C@H](CSC)C[C@@H]2c3cccc4[nH]cc(c34)C[C@H]21,0.23&-0.48,0.5
CC1CC(C)CN(C(=O)c2ccc(CSc3nc4ccncc4n3Cc3ccc(F)cc3)cc2)C1 (configuration not stated),64,-0.95
COC(=O)c1ccc(/C=N/NC(=O)CSc2nnc(C)n2-c2ccccc2)cc1,-0.1,-1
CC1CCN(Cn2c(=S)n(CN3CCC(C)CC3)c3ccccc32)CC1,9,-0.4
CCn1c(-c2cccs2)nn(CN2CCN(S(=O)(=O)c3cccs3)CC2)c1=S,.,0.25
CCC1(C)NC(=O)N(/N=C/C(C)=C/c2ccccc2)C1=O (configuration not stated),.,-0.25
COc1ccc(C(=O)NC(=Nc2c(C)cccc2C)SC)cc1,-0.97,-0.7
O=C(O)c1ccccc1Sc1c(C(=O)O)cc([N+](=O)[O-])cc1[N+](=O)[O-],-1.6,.
COC(=O)c1ccc(-n2nc(SC)sc2=S)cc1,.,0.35
CC(C)S(=O)(=O)c1cnc(-c2cccnc2)nc1N,0.33,.
NC1=NC(c2ccccc2)C(C(=O)c2ccccc2)N1 (configuration not stated),0.04,-0.9
COc1ccc(CNCc2ccc(OC)c(C)c2)cc1,0.15,-0.3
Cc1cc(C)n2nc(C(=O)NC(C)(C)C)nc2n1,.,-0.1
Cn1c(=NC(=O)c2nc3ccccc3s2)sc2cc(S(C)(=O)=O)ccc21,.,-0.6
O=C(OCC1CCCN2CCCCC12)c1ccc(F)c(F)c1 (configuration not stated),-0.32,-1.3

Carrying on.
SMILES,CapD inh,AID504770
CC1CCN(Cc2nc(-c3ccc(Cl)cc3)no2)CC1,-0.84,-0.85
CCN(CC)C(=O)CSc1nc2ccccc2c(=O)n1Cc1ccc(C(=O)NC2CC2)cc1,0.27,0.3
Brc1ccsc1-c1csc(-c2ccncc2)n1,-0.56,2.1
Cc1ccc(-c2[nH]ncc2CN(C)Cc2ccccc2)cc1,-0.73,-0.25
N#Cc1ccc(C#CCOC(=O)Nc2ccc(Cl)cc2)cc1,0.025,1.8
CCOC(=O)c1cc(Sc2ccccc2N)cc(C(=O)OCC)n1,0.08,-0.3
Cc1ccc(CNC(=O)Nc2ccccc2)n1C,-0.46,0.75
Cc1nccc(-c2nn(-c3ccc(F)cc3)ccc2=O)n1,12,-1.2
Cc1cc(C)c2nc(N3CCC(C(=O)N4CC(C)CC(C)C4)CC3)sc2c1 (configuration not stated),-0.055,-0.75
COc1ccc(-c2nc3cc(N=Cc4cccc(OC)c4O)ccc3o2)cc1,1,0.1
C=CCSc1nc(N)c(C(=O)Nc2ccccc2C)cc1C(N)=O,11,0.55
O=C(c1ccc(Cl)cc1)N1N=C(C(F)(F)F)CC1(O)c1ccc(F)cc1 (configuration not stated),-0.32,.
COCCOC(=O)C1=C(C)NC(C)=C(C(=O)OCCOC)C1c1cn(-c2ccccc2)nc1-c1ccc([N+](=O)[O-])cc1,-0.93,.
COc1ccc(Nc2c(-c3ccsc3)nc3cnccn23)cc1OC,-1.1,0.6
COc1ccc(-c2cc(C(=O)OCC(=O)N(C)C)c3ccccc3n2)cc1,.,-3.1

More records:
SMILES,CapD inh,AID504770
COc1ccccc1CNc1ccc(O)cc1,0.17,0
CC1CCC(NC(=O)C2CCCN2S(=O)(=O)c2ccc3c(c2)n(C)c(=O)c(=O)n3C)CC1 (configuration not stated),2,0.1
CC(=O)O[C@H]1C(=O)[C@@]2(C)C([C@H](OC(=O)c3ccccc3)[C@]3(O)C[C@H](O)C(C)=C1C3(C)C)[C@]1(OC(C)=O)CO[C@@H]1C[C@@H]2O (some centres not stated),.,0.25
CCC(C)(C(=O)NC1CCCCC1)N(Cc1cccs1)C(=O)c1ccccn1 (configuration not stated),0.12,0.8
CCOc1ccc(Nc2nc(N3CCOCC3)nc(N3CCOCC3)n2)cc1,-0.41,.
Cn1nc(C(F)(F)F)c(C(=O)Nc2ccc(Cl)c(Cl)c2)c1Cl,-0.4,.
Cc1ccc(-c2nnc3c4ccccc4c(C)nn23)cc1S(=O)(=O)NC(C)C,0.78,1.1
O=C(CCCc1ccccc1)Nc1ccc(C(=O)O)cc1,0.43,0.7
CCOC(=O)Sc1ccc2ccccc2c1,-0.15,-0.75
CCOC(CNc1nc(C)nc2sc3c(c12)CCCC3)OCC,0.43,-1.1
COc1ccc2nc(N3CCCCC3)c(/C=C3/C(=O)NC(=S)N3C(C)=O)cc2c1,-0.19,.
O=C1c2ccccc2-c2nc3ncnn3c(-c3ccccc3Cl)c21,-0.39,1.2
OCC1(CO)CSC(Nc2ccc(F)cc2)=N1,1.1,-0.4
COc1ccc(-c2[nH]nc3c2C(c2cc(OC)c(OC(=O)c4ccco4)c(OC)c2)C(C#N)=C(N)O3)cc1 (configuration not stated),-0.55,.
Cc1ccc(CNC(=O)c2cc(=O)[nH]c3ccc(S(=O)(=O)N4CCOCC4)cc23)cc1,0.12,0.9

Next part:
SMILES,CapD inh,AID504770
COc1cccc(CN2CCN(C(=O)c3cccs3)CC2)c1,0.07,1.2
CCCn1c(NC(=O)Cc2coc3ccc4ccccc4c23)nc2ccccc21,.,1.7
Nc1nc(Sc2nc3cc(Cl)ccc3s2)n[nH]1,1,0.5
O=C(CSc1nncs1)NCc1cccs1,.,0
Cc1ccc2c(c1)N(C(=O)Nc1ccccc1)CC(C)O2 (configuration not stated),-0.11,-1.5
CC(C)(C)c1cc(C(C)(C)C)cc(S(=O)(=O)CCc2ccccn2)c1,35,0.85
CSc1nc2nc(C)cc(C)n2n1,0.96,-0.55
CCS(=O)(=O)Nc1ccc(C(=O)NC2CC2)cc1,0.5,-0.7
CC1CN(C)C(C)CC1OC(=O)c1ccccc1Cl (configuration not stated),-0.18,1.9
CC(=O)OCC12CC=C(C)C(C1)C(c1ccccc1OC(C)=O)OC2 (configuration not stated),0,2.4
COc1ccc(NC(=O)CSc2nc3[nH]ncc3c(=O)n2-c2cccc(C(F)(F)F)c2)cc1OC,0.055,.
Cc1ccc2c(COC(=O)CNC(=O)c3ccco3)cc(=O)oc2c1C,.,-0.35
CC/C(Cc1ccccc1)=N\NC(=O)Cn1nnc2ccccc21,.,-0.15
CCOC(=O)c1ccc(N2C(=O)c3n[nH]c(C)c3C2c2ccc(Cl)cc2Cl)cc1 (configuration not stated),-0.51,1
Cn1c(C(=O)O)c(CC(=O)N2CCCCCC2)c2ccccc21,-1.2,.

Going on with the list:
SMILES,CapD inh,AID504770
O=C(Nc1ccc2c(c1)OCCO2)c1cccs1,-1.1,0
CCN1CCCC1CNCc1cccc(OC)c1OC (configuration not stated),.,-0.25
Cc1ccc(S(=O)(=O)NC(=O)N2CCCN(c3ccc(C(F)(F)F)cn3)CC2)cc1,18,-0.05
COc1cc(C#N)ccc1OCC(=O)NC(C)c1ccc2c(c1)OCO2 (configuration not stated),.,1.5
COc1ccc(C2=C/C(=C3\c4ccccc4-c4ncccc43)C(=O)O2)cc1,0.18,.
Cn1c(=O)[nH]c(=O)c2c1nc(N(CCO)Cc1ccccc1)n2CCCc1ccccc1,0.26,-1.1
COc1ccccc1NC(=O)Cn1cnc2c(cnn2C(C)(C)C)c1=O,0.005,-0.6
Cc1nc(SCC(=O)C(C)(C)C)[nH]c(=O)c1Cc1c(Cl)cccc1Cl,0.29,0
NC(=O)CC1C(=O)N(c2ccc(F)cc2)C(=O)N1NC(=O)CCc1ccccc1 (configuration not stated),-0.52,-0.95
Cc1ccc2c(c1)-c1ccccc1S(=O)(=O)N2S(=O)(=O)c1ccccc1,-0.18,.
NC(=O)c1c(C(F)(F)F)cc[nH]c1=O,60,-0.3
O=C(Nc1cccc(OC(=O)c2ccco2)c1)c1ccccc1,.,-0.65
N#C/C(=C1/CCCCCN1)c1nc2ccccc2s1,0.29,0.5
CC(=O)c1ccc2c3c(onc13)-c1ccccc1C2=O,-0.3,.

Bioassay records (PubChem BioAssay)
